BJeLR lethal: BJeLR cell viability loss; BJeLR (HRASV12) viability, CellTiter-Glo ATP luminescence, 48 h; reference of the scale not given here; inhibition, % (no concentration beside the values); 0.17% of 300,000 active; AID 1554;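 active means replicate mean above 50%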;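 further: 50 nL library stock added to about 25 µL; numbers are from one replicate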
Mtb hypoxia inh: reduces hypoxia-regulated biosensor signal in M. tuberculosis. M. tuberculosis hypoxia-regulated fluorescent reporter, fluorescence. fluorescence inhibition, % (concentration not given with the values). 0.1% of 300,000 active. AID 1159583;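 active means 35 to 45% if threefold the growth effect, above 45% if 1.5-fold the growth effect; inactive means the rest, general growth blockers included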;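 further: wells of about 50 µL received 100 nL stock; 0% = vehicle wells and 100% = reference inhibitor wells; whole bacteria with a GFP reporter of the hypoxia response; strong numbers were not always called active; many hits fall short of the cut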
Sa RN4220 lethal: S. aureus RN4220 growth inhibition. OD600, 16 h. inhibition, % (concentration not given with the values). 0.33% of 330,000 active;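 active means z-score of -3 or lower and OD600 up to 0.18 on both plates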;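 further: plate controls were untreated cells for no effect and reference antibiotic for full effect; stock transfer was 100 nL into about 80 µL; one replicate is shown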
Autofluor counter: compound fluorescence in toxin protease inhibitor counterscreen | 3.1% of 360,000 active | fluorescence intensity (test concentration not listed) | compound autofluorescence counterscreen, microsphere flow cytometry; hits give high values | AID 624483;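 active means at least 3 SD above the mean of all compounds, about 16000 in these data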;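 further: 100 nL of 1 mM stock went into each well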
ugtP null kill: kills S. aureus RN4220 lacking UgtP; growth inhibition, % (concentration not given with the values); S. aureus RN4220 ugtP deletion, OD600 growth, 16 h; some inactives read as strong as hits; 0.54% of 330,000 active;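 active means z-score under -3 and OD600 up to 0.15 on both plates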;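 further: plate controls were untreated wells for no effect and antibiotic for full effect; wells of about 80 µL received 100 nL stock; the first replicate is given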
PrP 5UTR inh: inhibition of PrP 5' UTR reporter expression; cell-based PrP 5' UTR mRNA reporter, plate reader; 0.35% of 340,000 active; inhibition, % (test concentration not listed);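 active means every replicate at 50% or more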;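 further: 0 = median of the neutral control wells; tested in H4 reporter cells; numbers are from one replicate; inactives centre near -14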
Mtb hypoxia inh growth: further read-out of Mtb hypoxia inh, marked with its call; growth inhibition, %; measured here: M. tuberculosis growth (absorbance);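 0% = vehicle and 100% = reference antibiotic; read after six days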
The depositor's hits bear a star; . = not tested or not shown.

#	SMILES	BJeLR lethal	Mtb hypoxia inh	Mtb hypoxia inh growth	Sa RN4220 lethal	Autofluor counter	ugtP null kill	PrP 5UTR inh
1	O=C(O)c1ccccc1C(=O)Nc1ccc(Oc2ccc3ccccc3c2)cc1	3	11	5	6.8	3008	-10	-1
2	CCCn1c(=NC(=O)CS(=O)(=O)c2ccccc2)sc2cc(S(C)(=O)=O)ccc21	1	3	1	8.9	6332	1	-28
3	Cc1cc(C(=O)NCc2ccc3c(c2)OCO3)n(-c2ccccc2)n1	0	7	8	-5.5	5360	-3	-3
4	O=C(CNS(=O)(=O)c1ccccc1)OCc1cccc([N+](=O)[O-])c1	-2	3	7	5.3	2616	3	-9
5	COc1cccc(C=NNC(=O)C(=O)Nc2ccccc2OC(F)(F)C(F)F)c1O	.	2	5	2.2	.	12	.
6	CN(C)CCNC(=O)Cc1ncc(C(F)(F)F)cc1Cl	5	9	12	2.2	4311	6	-9
7	Cc1cc(=O)[nH]c(SCc2cccc3ccccc23)n1	0	15	6	6.5	2949	3	-19
8	CCN(CC)c1ccc(/C=N/NC(=O)c2cccc(S(=O)(=O)N3CCOCC3)c2)cc1	-5	.	.	.	10941	.	-13
9	Cc1ccc(OCC(=O)N2N=C(c3cccnc3)CC2(O)C(F)(F)F)cc1C (stereo not drawn)	1	4	5	4.9	1970	3	-4
10	Cc1ccc2sc(=O)[nH]c2c1	-4	1	-1	3.1	4387	4	-14
11	Fc1ccc(-c2nnc(-c3ccc4ccccc4c3)o2)cc1	.	23	17	5.1	3880	-16	-63
12	CC(OC(=O)CSCC(=O)Nc1ccc(Cl)cc1)C(=O)N(C)Cc1ccccc1 (stereo not drawn)	.	4	2	-4.7	.	6	-3
13	O=c1c2ccccc2[nH]c(=S)n1-c1cccc(S(=O)(=O)N2CCCC2)c1	-2	1	2	4.2	2022	-7	-21
14	O=c1[nH]c(=O)n(C2CCCCC2)c(O)c1/C=N/N1CCCCC1c1cccnc1 (stereo not drawn)	5	8	6	1.8	4931	5	-3
15	CCCOC(=O)c1cccc(Nc2nc(-c3cccnc3)nc3ccccc23)c1	0	7	10	30	3455	38	-17
16	CN1CCC(=NNC(=O)c2ccco2)CC1	5	0	3	6.8	3065	-2	2
17	Cc1cccc(NC(=O)COC(=O)C2C3CC4OC(=O)C2C4C3)c1C (stereo not drawn)	6	2	-5	2.8	2886	7	7
18	Cn1c(C(=O)NCCOc2ccccc2Cl)cc(=O)n(C)c1=O	1	-5	0	1.2	4324	-7	-1
19	COc1ccc(N(C(=O)c2cccnc2)S(=O)(=O)c2ccc3c4c(cccc24)C(=O)N3C)cc1	4	8	-1	2.7	2137	-5	-19
20	CCOc1ccc2nc(SC(CC)C(=O)Nc3cc(C)on3)sc2c1 (stereo not drawn)	-4	3	1	19	2385	18	-18
21	COc1ccc(CN(CC2CCCO2)S(=O)(=O)c2ccc(C(=O)O)cc2)cc1OC (stereo not drawn)	0	5	14	-0.1	23567*	-2	-99
22	O=C(Nc1ccccc1C(=O)N1CCOCC1)c1ccco1	-3	.	.	-0.4	3238	-1	-10
23	Cc1cc(Br)ccc1NC(=O)CN1C(=O)C2C3CC(c4ccccc4)C(C3)C2C1=O (stereo not drawn)	-14	6	6	-0.9	11503	-18	-31
24	CCOc1ncccc1C(=O)Nc1ccc(S(=O)(=O)NC2=NCCCCC2)cc1	11	8	7	0.9	4408	13	-10
25	COc1ccc(CN2CCN(C3CCC3)CC2CCO)c(C)c1C (stereo not drawn)	0	13	8	2.9	3885	2	-16
26	COc1ccc(N(CC(=O)NCCC2=CCCCC2)S(C)(=O)=O)cc1	-5	0	8	8.5	8009	12	-13
27	O=C(Cc1ccccc1)NCCc1cnc[nH]1	0	3	-6	6.5	3821	5	-17
28	CCOC(=O)C1CCN(C2=NC(=O)/C(=C/c3ccccc3OC)S2)CC1	12	-6	3	3.1	3805	-1	-8
29	Cc1cccc(C(=O)NCCCNC(=O)c2ccc(C)nc2)c1	-6	-4	10	-0.5	5535	7	-8
30	CC(C)=C1SC(N2CCCCC2)=NC1=O	-5	.	.	6.6	4331	-1	-13
31	CC1(C(=O)N2CC3(CC(c4ccccc4)=NO3)CC2C(=O)NCC(N)=O)CC1 (stereo not drawn)	.	10	6	2.8	.	-10	.
32	O=C1c2cccc3cccc(c23)C(=O)N1/N=C/c1c(O)n(-c2ccccc2)c(=O)[nH]c1=O	3	0	-2	1.5	4339	2	-14
33	C#CCOCCOCCOCCNc1nc(N2CCN(C(=O)[C@H](CCC(=O)O)n3cc([C@@H](N)CCCCN)nn3)CC2)nc(N2CCN(C(=O)[C@H](CCC(=O)O)n3cc([C@@H](N)CCCCN)nn3)CC2)n1	.	-8	-9	-2.4	3772	0	-4
34	Cc1ccc(NC(=O)NNC(=O)COc2ccc3ccccc3c2)cc1	7	1	-4	7.9	4811	14	2
35	Cc1ccc(C(=O)Cn2cnc3ccccc3c2=O)cc1C	-3	5	4	-16	2449	-2	-52
36	COc1ccc(NC(=O)CS(=O)(=O)Cc2ccccc2)c([N+](=O)[O-])c1	5	6	3	4.9	4753	14	10

Gathered by group, those above containing sulfur.
#	SMILES	BJeLR lethal	Mtb hypoxia inh	Mtb hypoxia inh growth	Sa RN4220 lethal	Autofluor counter	ugtP null kill	PrP 5UTR inh
2	CCCn1c(=NC(=O)CS(=O)(=O)c2ccccc2)sc2cc(S(C)(=O)=O)ccc21	1	3	1	8.9	6332	1	-28
4	O=C(CNS(=O)(=O)c1ccccc1)OCc1cccc([N+](=O)[O-])c1	-2	3	7	5.3	2616	3	-9
7	Cc1cc(=O)[nH]c(SCc2cccc3ccccc23)n1	0	15	6	6.5	2949	3	-19
8	CCN(CC)c1ccc(/C=N/NC(=O)c2cccc(S(=O)(=O)N3CCOCC3)c2)cc1	-5	.	.	.	10941	.	-13
10	Cc1ccc2sc(=O)[nH]c2c1	-4	1	-1	3.1	4387	4	-14
12	CC(OC(=O)CSCC(=O)Nc1ccc(Cl)cc1)C(=O)N(C)Cc1ccccc1 (stereo not drawn)	.	4	2	-4.7	.	6	-3
13	O=c1c2ccccc2[nH]c(=S)n1-c1cccc(S(=O)(=O)N2CCCC2)c1	-2	1	2	4.2	2022	-7	-21
19	COc1ccc(N(C(=O)c2cccnc2)S(=O)(=O)c2ccc3c4c(cccc24)C(=O)N3C)cc1	4	8	-1	2.7	2137	-5	-19
20	CCOc1ccc2nc(SC(CC)C(=O)Nc3cc(C)on3)sc2c1 (stereo not drawn)	-4	3	1	19	2385	18	-18
21	COc1ccc(CN(CC2CCCO2)S(=O)(=O)c2ccc(C(=O)O)cc2)cc1OC (stereo not drawn)	0	5	14	-0.1	23567*	-2	-99
24	CCOc1ncccc1C(=O)Nc1ccc(S(=O)(=O)NC2=NCCCCC2)cc1	11	8	7	0.9	4408	13	-10
26	COc1ccc(N(CC(=O)NCCC2=CCCCC2)S(C)(=O)=O)cc1	-5	0	8	8.5	8009	12	-13
28	CCOC(=O)C1CCN(C2=NC(=O)/C(=C/c3ccccc3OC)S2)CC1	12	-6	3	3.1	3805	-1	-8
30	CC(C)=C1SC(N2CCCCC2)=NC1=O	-5	.	.	6.6	4331	-1	-13
36	COc1ccc(NC(=O)CS(=O)(=O)Cc2ccccc2)c([N+](=O)[O-])c1	5	6	3	4.9	4753	14	10

Two compounds from above, showing only Mtb hypoxia inh growth and BJeLR lethal.
no.	mol	Mtb hypoxia inh growth	BJeLR lethal
33	C#CCOCCOCCOCCNc1nc(N2CCN(C(=O)[C@H](CCC(=O)O)n3cc([C@@H](N)CCCCN)nn3)CC2)nc(N2CCN(C(=O)[C@H](CCC(=O)O)n3cc([C@@H](N)CCCCN)nn3)CC2)n1	-9	.
8	CCN(CC)c1ccc(/C=N/NC(=O)c2cccc(S(=O)(=O)N3CCOCC3)c2)cc1	.	-5

Assay outcomes from PubChem BioAssay.
